# Compound activity: PubChem, National Center for Advancing Translational Sciences (NCATS)
# Vaccinia Venus: qHTS for Stage-Specific Inhibitors of Vaccinia Orthopoxvirus: Venus Reporter Primary qHTS. hit rate 0.46% among 330,000. Vaccinia virus Venus reporter expression, fluorescence. AID 720580, 2013. Potency, µM (top dose mostly 36.5 µM), without a hit: at the top dose activity change, negative = inhibition, most hits filed as inhibitors; active means well fitted inhibition curve with a large enough effect; inconclusive means small, poorly fitted or top-dose-only effect; inactive means no such curve, though single readings can be large or run the other way; tested in A549 cells; further: nearly all actives have a fitted effect of over 30% in size; inactives centre near -10
# VACV mCherry inh: qHTS for Stage-Specific Inhibitors of Vaccinia Orthopoxvirus: mCherry Reporter Primary qHTS; hit rate 0.63% among 310,000; Vaccinia virus mCherry reporter infection, fluorescence; about a quarter of the inactives have no number; AID 720579, 2013; Potency, µM (top dose mostly 36.5 µM), without a hit: top-dose activity change, negative = inhibition, usual class: inhibitors; active = well fitted inhibition curve with a large enough effect; inconclusive = small, poorly fitted or top-dose-only effect; inactive = no such curve, though single readings can be large or run the other way; tested in A549 cells; further: nearly all actives have a fitted effect of over 35% in size; inactives centre near -10
# The depositor's hits bear a star; i = inactive; ? = inconclusive; nt = no result given; & = joins results of further samples; [ ] = dose if it differs, or a comment. On the % scale 0 is the no-effect control and ±100 the full control effect; potency means the concentration at half of the fitted maximal effect.
cpd	mol	Vaccinia Venus	VACV mCherry inh
1	Cc1ccc(OCC(O)Cn2c(N3CCOCC3)nc3c2c(=O)[nH]c(=O)n3C)cc1 (configuration not stated)	-3%	-11%
2	Cc1coc2cc3oc(=O)c(CC(=O)NCc4ccccc4)c(C)c3cc12	-18%	-21%
3	NC(=O)C1CCC(NC(=O)OCc2ccccc2)CC1 (configuration not stated)	?	nt
4	Cc1cccc(NC(=O)CN2CCN(C(=O)C3CCC3)CC2)c1C	2%	-10%
5	C/C(=N\NC(=O)c1ccccc1C)c1ccc(N2CCOCC2)cc1	-15%	-16%
6	Oc1c(Br)cc(Br)cc1C=Nc1cccnc1	-16%	i
7	CC1CCCN(Cc2c(O)ccc3c(=O)c(Oc4ccccc4Cl)c(C(F)(F)F)oc23)C1 (configuration not stated)	0%	1%
8	CCC(c1nnnn1C1CCCC1)N1CCN(C(=O)c2ccco2)CC1 (configuration not stated)	-13%	nt
9	O=C(/C=C/NCc1cccnc1)c1ccc(Br)cc1	-18%	-17%
10	N#C/C(=C\c1ccccc1C(F)(F)F)C(=O)Nc1ccccc1	0%	-5%
11	Cc1ccc(C)c(N2CCN(C(=O)C3CCCN(S(=O)(=O)c4ccc5c(c4)oc(=O)n5C)C3)CC2)c1 (configuration not stated)	-25%	-27%
12	Cn1c(=O)c2c(SCC(=O)Nc3nccs3)nc(C3CC3)nc2n(C)c1=O	-11%	-14%
13	COc1ccc(-c2cc(C(C)=O)c(C)n2CCC(=O)Nc2ccc(C)c(Cl)c2)cc1	-12%	-12%
14	COc1ccc(CNC(=O)C2CCCN(c3ncnc4c3nc3n4CCCCC3)C2)cc1 (configuration not stated)	-7%	i
15	Cc1ccc(CS(=O)Cc2ccc(C(=O)NCC(C)c3ccccc3)o2)cc1 (configuration not stated)	2%[7.34 µM]	-12%[7.34 µM]
16	Cc1c(N=C/C=C2/N(C)c3ccccc3C2(C)C)c(=O)n(-c2ccccc2)n1C	-19%&-13%	-4%&-13%
17	O=C(c1c(Cl)nc2sccn12)N(C(=O)c1c(Cl)nc2sccn12)c1ccc(Cl)cn1	13%	8%
18	Cc1ccc2c([N+](=O)[O-])cccc2n1	0%	-10%
19	O=C(COC(=O)c1ccc2c(c1[N+](=O)[O-])C(=O)c1ccccc1C2=O)NC1CC1	105%[activator]	-13%
20	O=C(OCC(=O)N1CCOCC1)C(c1ccccc1)c1ccccc1	0%	i
21	CCOc1cccc2sc(N(CCN(CC)CC)C(=O)c3ccc(S(=O)(=O)N4CCCC4)cc3)nc12	-8%	i
22	CC(C)(C)NS(=O)(=O)c1ccc(NC(=O)C2CC(=O)N(CCc3ccc(F)cc3)C2)cc1 (configuration not stated)	-12%	i
23	CCCn1nc(C(=O)NCC(C)(C)N2CCOCC2)c2ccccc2c1=O	-12%	nt
24	COc1ccc(-n2ncc3c(N4CCc5ccccc54)ncnc32)cc1	-7%	-13%
25	CC12CCC(O)CC1=CCC1C2CCC2(C)C3=NN=CC3CC12 (configuration not stated)	-25%	?
26	COC(=O)c1ccc2nc(-c3ccc(Cl)cc3)c(Cc3ccc(OC)cc3C)n2c1	6%	-6%
27	Cc1cccc(N2CCN(C(=O)Cn3nc(Cc4cccnc4)c4ccccc4c3=O)CC2)c1C	-20%	-7%
28	CO[C@H]1CN(C)C(=O)c2cc(NC(=O)c3ccccc3)ccc2OC[C@H](C)NC[C@@H]1C	2%	-3%
29	COc1cccc(-c2cc(NC=O)c3ncc(-c4cccc(C(=O)NCCN(C)C)c4)n3c2)c1	-7%	5%
30	OC(c1cccc(Cl)c1)c1nc(-c2ccccc2)cs1 (configuration not stated)	-12%	?

# 5 successive compounds out of the list so far, for reference:
cpd	mol	Vaccinia Venus	VACV mCherry inh
16	Cc1c(N=C/C=C2/N(C)c3ccccc3C2(C)C)c(=O)n(-c2ccccc2)n1C	-19%&-13%	-4%&-13%
17	O=C(c1c(Cl)nc2sccn12)N(C(=O)c1c(Cl)nc2sccn12)c1ccc(Cl)cn1	13%	8%
18	Cc1ccc2c([N+](=O)[O-])cccc2n1	0%	-10%
19	O=C(COC(=O)c1ccc2c(c1[N+](=O)[O-])C(=O)c1ccccc1C2=O)NC1CC1	105%[activator]	-13%
20	O=C(OCC(=O)N1CCOCC1)C(c1ccccc1)c1ccccc1	0%	i

# (list continues)
cpd	mol	Vaccinia Venus	VACV mCherry inh
31	CC1CCCCN1C(=O)c1ccc2c(c1)N(Cc1ccc(F)cc1)C(=O)c1ccccc1S2(=O)=O (configuration not stated)	-7%	-11%
32	Cc1ccc(C)c(NC(=O)CN(CCc2ccccc2)S(=O)(=O)c2ccccc2)c1	-13%	-21%
33	CC(=O)N(c1ccccc1)c1nc(/C=C/C(=O)Nc2c(C)cc(C)cc2C)cs1	-16%	-23%
34	COC(=O)c1sccc1NC(=O)C1CC1	-8%	-9%
35	Cc1nnc(N(Cc2ccco2)C(=O)c2ccno2)s1	2%	-7%
36	Cc1cccc(S(=O)(=O)c2cn(Cc3ccccc3)c3cc(N4CCOCC4)c(F)cc3c2=O)c1	-28%	-19%
37	COc1ccc(CC(=O)NCc2nc(-c3ccccc3)no2)cc1	-12%	i
38	Cc1cccc(N=C(NO)c2nonc2N)c1	-13%	-14%
39	O=C(CN1C(=O)NC2(CCc3ccccc32)C1=O)c1c[nH]c2ccccc12 (configuration not stated)	-14%	-8%
40	Cc1c(NC(=O)c2cccnc2C(=O)O)cccc1C(=O)O	-5%	-9%
41	CCCCCC(O)(c1ccc(OCC)cc1)C(CN1CCOCC1)c1ccccc1 (configuration not stated)	-25%	-24%
42	CCN(CC)S(=O)(=O)c1ccc(C(=O)OCC(=O)c2ccc3c(c2)NC(=O)CO3)cc1	-10%	-12%
43	Clc1ccc(-c2nnc3ccccn23)cc1	-17%	nt
44	CCCCC(C(=O)O)C(C)CC(=O)Nc1nccs1 (configuration not stated)	-1%	-6%
45	COc1ccc(C2CC(=O)c3cc(-c4nc(-c5cccc([N+](=O)[O-])c5)cs4)c(=O)n(-c4cc(C)cc(C)c4)c3C2)cc1 (configuration not stated)	-3%	-10%
46	COc1ccc(C2c3ccc(O)cc3Oc3ncn4nc(-c5ccccn5)nc4c32)cc1OC (configuration not stated)	-20%	-28%
47	C=CCOc1ccc(/C=N/NC(=O)C(=O)N2CCCCCC2)cc1OC	11%	2%
48	O=C(COc1ccc(Cl)cc1[N+](=O)[O-])N/N=C/c1cccs1	-6%	-16%
49	CC1CCC(NC(=O)c2cccc(S(=O)(=O)N3CCN(c4ccc(F)cc4)CC3)c2)CC1 (configuration not stated)	-21%	-9%
50	Cc1ccc(-n2c(=O)c3ccc(C(=O)NCc4ccco4)cc3n(Cc3ccccc3C#N)c2=O)cc1	-21%&-6%	-10%&0%
51	COc1ccc(NC(=S)N2CCCCCC2)cc1OC	-11%	-1%
52	CCOc1ccc(NC(=O)CN(C)C(=O)c2cccnc2SC)cc1OCC	-4%	-14%
53	CCCCC(=O)Nc1ccccc1CC	-13%	i
54	Cc1ccc(-c2nc(CS(=O)(=O)CC(=O)NCCN3CCOCC3)c(C)o2)cc1	?	-15%
55	Nc1ccc(Oc2ccc(Cl)cc2)cc1	-29%	?
56	CCCCN1C(=O)C(NC(=O)c2ccc(C(C)(C)C)cc2)(C(F)(F)F)C(C(=O)OC)=C1C (configuration not stated)	-6%	13%
57	CCC(C)NC(=O)Cc1c(C)c2cc3c(cc2oc1=O)OC(C)(C)CC3 (configuration not stated)	-18%	i
58	NC(=O)/C=C\c1cn(-c2ccccc2)nc1-c1ccc2c(c1)OCCO2	?	?
59	CSCCC(NS(=O)(=O)c1ccc2c(c1)oc(=O)n2C)C(=O)NC1CCC(C)CC1 (configuration not stated)	-11%	i
60	CC(C)[C@H](NC(=O)c1cccc(S(=O)(=O)N2CCCC2)c1)c1nc2ccccc2[nH]1	-10%	-15%[1.46 µM]
61	CC1CCN(C(=O)c2[nH]cnc2C(=O)N[C@@H](C)C(=O)OCc2ccccc2)CC1	-16%	i
62	CC(=O)NCCNc1nc(NC(C)C)nc2cc(-c3ccccc3)sc12	-20%	8%
63	O=C1C2CCN(CC2)[C@@H]1Cc1ccc2ccccc2c1O	1%	nt
64	CC(C)NC(=O)C1(C)CCN1C(=O)c1cccn1C (configuration not stated)	-4%	41%[activator]
65	O=C(C1CCCN(S(=O)(=O)c2ccccc2)C1)N1CCN(c2ccc(F)cc2)CC1 (configuration not stated)	-26%	?
66	COC(=O)c1cc(OC)c(OC)cc1NC(=O)CN1CCOCC1	-12%	-25%
67	COc1cc(/C=C2\COC/C(=C\c3ccc(O)c(OC)c3)C2=O)ccc1O	?	?
68	CCCN[C@@H]1CCc2c(OC)cccc2[C@@H]1C	-12%	i
69	CN(Cc1ccccc1Cl)C(=O)C1CC(=O)N(c2ccc3c(c2)OCCO3)C1 (configuration not stated)	-11%	i
70	COc1ccccc1/C=C1\CCCC2=C1Nc1nnnn1C2c1ccccc1OC (configuration not stated)	-9%	-9%
71	COc1cc(OC)cc(C(=O)N2CCC3(CC2)NCCc2[nH]cnc23)c1	-6%	-17%
72	COc1ccc(CCNC(=O)C(=O)NCC2CCCN2S(=O)(=O)c2cccs2)cc1OC (configuration not stated)	-13%	-7%
73	COCCCN1C(=O)C(CC(=O)NC(c2ccccc2)c2ccccc2)CC(C(=O)N(C)C)=C1C (configuration not stated)	-13%	i
74	COc1ccc(NC(=O)Cn2cnc3sc(C)c(S(=O)(=O)N4CCOCC4)c3c2=O)c(OC)c1	-27%	-24%
75	CCOC(=O)CSc1nnc(Cc2ccccc2)n1-c1ccc(C)cc1	4%	-3%

# Reformatted with values under each structure: entries from further up.
# Values run as follows: Vaccinia Venus, VACV mCherry inh
63) O=C1C2CCN(CC2)[C@@H]1Cc1ccc2ccccc2c1O
  1%, nt
64) CC(C)NC(=O)C1(C)CCN1C(=O)c1cccn1C (configuration not stated)
  -4%, 41%[activator]
65) O=C(C1CCCN(S(=O)(=O)c2ccccc2)C1)N1CCN(c2ccc(F)cc2)CC1 (configuration not stated)
  -26%, ?

# Next section
cpd	mol	Vaccinia Venus	VACV mCherry inh
76	COc1ccccc1P(=O)(c1ccccc1)c1ccc([N+](=O)[O-])cc1 (configuration not stated)	-4%	i
77	CC(C)NC(=O)CSc1nc2ccccc2nc1N1CCCCC1	1%	-4%
78	CC1CCCCN1C(=O)CSc1nnc(-c2ccccc2Cl)o1 (configuration not stated)	-11%	-14%
79	Cn1nc(-c2ccc(N3CCCCC3)c(NC(=O)c3ccco3)c2)c2ccccc2c1=O	-16%	i
80	O=C(COC(=O)c1ccc(N2CCCC2=O)cc1)c1ccc(OC(F)F)cc1	0%	-10%
81	O=C(NCC1CCCN1S(=O)(=O)c1cccs1)c1cccc(F)c1 (configuration not stated)	-11%	-9%
82	O=C(C1CCCCN1S(=O)(=O)c1ccccc1[N+](=O)[O-])N1CCCC1 (configuration not stated)	-10%	-9%
83	CCCCc1nc(SCC(=O)Nc2nnc(CCCC)s2)n[nH]1	-9%	i
84	Cc1cccc(NC(=O)CCc2ccc(C)o2)c1	-14%	nt
85	CC(=O)Nc1ccc(NC(=O)C2(C)CC2(Cl)Cl)cc1 (configuration not stated)	-13%	-11%
86	O=C(O)c1cc(NC(=O)c2ccccc2F)cc(NC(=O)c2ccccc2F)c1	-21%	i
87	Cc1noc(C)c1COc1ccc(C(=O)N2CCN(S(=O)(=O)c3ccc(F)cc3)CC2)cc1	-5%	i
88	Cc1ccc(-n2c(/C=C/c3ccc(Br)s3)nc3ccccc3c2=O)cc1	-24%	-18%
89	CCN1C(=O)C(=O)N(CC(=O)N(C)CC(=O)Nc2ccccc2Cl)C1=O	-8%	i
90	O=C1C=C(c2ccc(-c3ccccc3)c(F)c2)C[C@@H](c2ccc(Cl)cc2)C1	-18%	i
91	C(=N\Nc1nncn1/N=C/c1ccco1)/c1ccco1	4%	-8%
92	O=C(Nc1cccc(F)c1)C1CCN(C(=O)c2ccccc2Cl)CC1	?	?
93	COC(=O)C1=C(c2ccc(F)cc2F)C[C@@H]2CC[C@H]1N2C(=O)N1CCC(O)CC1	-16%	i
94	COc1ccc(Cl)cc1Nc1nc(C)nc2c1nnn2Cc1ccccc1	-9%	-6%
95	CCC(=O)/C=C1/Sc2ccc(OC)cc2N1CCO	-5%	i
96	O=C(Cn1c(=O)nc(-c2ccccc2)c2cc(Cl)ccc21)Nc1ccc(F)c(Cl)c1	1%	-8%
97	Nc1o[nH]c(=O)c1C1CCCCC1	-9%	-23%
98	COc1ccccc1Nc1ncc2c(n1)CCN(CC(C)C)C2	-6%	-10%
99	NS(=O)(=O)c1ccc(CCNC(=O)CCn2c(=O)c3cccn3c3cccnc32)cc1	-6%	-1%
100	CCN1CCN(C(=S)c2ccc(O)cc2)CC1	-12%	-5%
101	C=CCOC(=O)Nc1ccc(Cl)cc1NC(=O)OCC=C	-12%	-18%
102	COc1ccc(N2C(=O)CC(N(CCc3ccc(OC)c(OC)c3)C(=S)Nc3ccccc3)C2=O)cc1 (configuration not stated)	-23%	-3%
103	CN(C)c1ccc(N/C=C/C(=O)C(F)(F)F)cc1	0%	-5%
104	CCOc1ccc(C(=O)N2CCC(c3noc(-c4ccc(S(=O)(=O)N5CCCC5)cc4)n3)CC2)cc1	?	?
105	COc1cccc(CNC(=O)Cc2c(C)c3ccc(OC)c(C)c3oc2=O)c1	-8%	-10%

# Profiles from above. Order of screens: Vaccinia Venus	VACV mCherry inh
# Profile of CCC(=O)/C=C1/Sc2ccc(OC)cc2N1CCO = -5%	i
# Profile of C=CCOC(=O)Nc1ccc(Cl)cc1NC(=O)OCC=C = -12%	-18%
